Compound activity from PubChem BioAssay.
D2 potentiator: potentiates the human D2 dopamine receptor allosterically; P14416; DiscoveRx D2 beta-arrestin cells, luminescence, 90 min; 100% = 57 uM dopamine signal; potentiation, % (test concentration not listed); actives 0.23% (n = 360,000); active = potentiation of 50% or more; inconclusive = 30% to 50%; inactive = 30% or less;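 also: compound concentration not given in the record; tested on top of an EC20 dose of dopamine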
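PathHunter beta-arrestin assay in DiscoveRx D2 cells. Compounds were added with an EC20 of dopamine (50 nM final) for 90 min at 37 deg C. Luminescence was read 1 h after detection reagent, with 57 uM dopamine as the EC100 control.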
CtBP-E1A blk: inhibitors of CtBP/E1A interaction; AlphaScreen GST-E1A/His-CtBP binding, 1536-well; hits give low values; control for the full effect not named in the record; activity change, % (test concentration not listed); actives 0.49% (n = 340,000); in the data active means activity change below about -65%; inconclusive means about -30% to -65%; inactive means above about -30%; also: % is scaled to controls: 0 for no effect and ±100 for the full control effect; compound concentration not given in the record
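Protein mix (5X: 125 nM each GST-E1A, His-CtBP) was incubated with pinned compound 2 h at 37 deg C in dark, in 50 mM Tris pH 8.0 buffer with 300 mM NaCl. Glutathione donor and nickel acceptor beads followed; AlphaScreen signal read after 1 h.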
gsp agonist: activates gsp, the McCune-Albright syndrome mutation | gsp mutant cells, cAMP HTRF, 30 min; control for the full effect not named in the record | actives 0.13% (n = 340,000) | Potency, µM (titrated, usually from 76.9 µM), for the others: at the top dose activation (cAMP increase), most hits filed as activators; active = well fitted activation curve with a large enough effect; inconclusive = small, poorly fitted or top-dose-only effect, or another doubt; inactive = no such curve, though single readings can be large or run the other way; cell line not stated here;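 also: phosphodiesterase inhibitor Ro 20-1724 added with compounds to block cAMP breakdown; potency is read from the fitted curve at half-maximal effect; nearly all actives have a fitted effect of over 60% in size; about a fifth of the inactives were tested at one dose only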
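Cells stably selected in G418 were plated at 2000/well, grown 16-24 hr, then given compounds in DMSO with the PDE inhibitor […] (300 uM solution added) for 30 min at 37C; cAMP was read by HTRF.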
gsp antag: antagonizes gsp, the McCune-Albright syndrome mutation. gsp-mutant cells, cAMP HTRF, 30 min; control for the full effect not named in the record. Potency, µM (top dose mostly 76.9 µM), for inactives: at the highest dose activity change, negative = inhibition, hits mostly inhibitors. actives 0.4% (n = 340,000); active = falling curve of any shape with a large fitted effect; inconclusive = falling curve, mostly with a smaller effect; inactive = flat or rising curve; cell line not stated here;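 also: intracellular cAMP measured with PDE inhibitor Ro 20-1724 present during compound exposure; potency is read from the fitted curve at half-maximal effect; % is scaled to controls: 0 for no effect and ±100 for the full control effect; nearly all actives have a fitted effect of over 65% in size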
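G418-selected cells were plated in DMEM/10% FBS for 16-24 h at 37C, then treated with compounds plus the PDE inhibitor […] (300 uM solution added) for 30 min at 37C. Intracellular cAMP was measured by HTRF after 30 min lysis at room temperature.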
Six1-Eya2 inh: Six1/Eya2 interaction inhibition; actives 0.56% (n = 360,000); Q15475+O00167; activity change, % (test concentration not listed); AlphaScreen GST-Six1/His-Eya2 binding, biochemical; hits give low values; control for the full effect not named in the record; in the data active = activity change below about -65%; inconclusive = about -30% to -65%; inactive = above about -30%; also: % is scaled to controls: 0 for no effect and ±100 for the full control effect; compound concentration not given in the record
Target sequence (O00167 whole entry, looked up): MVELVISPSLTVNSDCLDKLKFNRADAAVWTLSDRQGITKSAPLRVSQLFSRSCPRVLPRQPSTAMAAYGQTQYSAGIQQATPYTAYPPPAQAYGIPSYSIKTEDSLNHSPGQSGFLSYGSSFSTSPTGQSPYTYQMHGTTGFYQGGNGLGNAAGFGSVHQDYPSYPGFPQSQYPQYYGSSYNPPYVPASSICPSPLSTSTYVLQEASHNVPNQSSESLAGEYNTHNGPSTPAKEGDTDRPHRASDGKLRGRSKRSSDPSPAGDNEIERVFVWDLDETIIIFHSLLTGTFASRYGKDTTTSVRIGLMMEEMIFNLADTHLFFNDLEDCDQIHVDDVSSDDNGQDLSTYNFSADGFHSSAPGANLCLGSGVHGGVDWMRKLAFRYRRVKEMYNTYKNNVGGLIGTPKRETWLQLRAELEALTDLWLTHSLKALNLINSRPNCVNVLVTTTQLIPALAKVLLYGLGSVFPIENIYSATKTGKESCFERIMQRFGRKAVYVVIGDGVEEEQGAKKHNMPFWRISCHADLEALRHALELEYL
Target sequence (Q15475 whole entry, looked up): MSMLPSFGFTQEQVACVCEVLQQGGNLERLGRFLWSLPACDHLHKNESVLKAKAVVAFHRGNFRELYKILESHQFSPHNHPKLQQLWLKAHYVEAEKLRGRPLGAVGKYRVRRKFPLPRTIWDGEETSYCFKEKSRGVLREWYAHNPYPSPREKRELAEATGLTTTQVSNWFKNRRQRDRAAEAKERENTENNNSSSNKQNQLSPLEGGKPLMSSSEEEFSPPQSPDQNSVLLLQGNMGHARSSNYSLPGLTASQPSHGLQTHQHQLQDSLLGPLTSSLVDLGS
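GST-Six1 + His-Eya2 (5X stock: 250/500 nM); Tris pH 8.0, 300 mM NaCl, 0.05% BSA, 0.02% Tween 20; GSH donor/Ni acceptor beads; 1 h 37 °C dark; AlphaScreen readout.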
D2 ag: agonists of human D2 dopamine receptor (beta-arrestin); P14416; activation, % (concentration not given with the values); DiscoveRx PathHunter D2 beta-arrestin, luminescence, 90 min; 100% = 57 uM dopamine signal; actives 0.084% (n = 360,000); in the data active = activation above about 40%; inconclusive = about 15% to 40%; inactive = below about 15%; also: compound concentration not given in the record; the text of the record calls up to 30% inactive
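DiscoveRx PathHunter D2 beta-arrestin cells (2,100/well) attached overnight, then compound-stimulated 90 min at 37 C in HBSS/10 mM HEPES/0.1% Tween-20 buffer; beta-galactosidase complementation read by luminescence after 1 h at ambient temperature. Dopamine 57 uM final (EC100) as control.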
* hit, by the source's call; ? = inconclusive; . = not tested or not shown; [ ] = remark or other dose.

Below each compound – D2 potentiator | CtBP-E1A blk | gsp agonist | gsp antag | Six1-Eya2 inh | D2 ag
> CCN1CCN(C(=O)C(C)Oc2ccc(S(=O)(=O)N3CCCC3)cc2C(N)=O)CC1 (stereo not drawn)
 : 1 | 2 | -57%[inhibitor] | 0% | 9 | -5.2
> O=C(NC1CCCC1)C(c1cccs1)N(C(=O)c1ccno1)c1ccccc1 (stereo not drawn)
 : -10 | 0 | -33%[inhibitor] | 3% | 2 | -4.7
> CCC(C)NC(=O)c1ccccc1NC(=O)CN1C(=O)c2ccccc2S1(=O)=O (stereo not drawn)
 : -6 | -4 | -2% | 5% | 9 | -19
> CC1CCc2cc(F)ccc2N1C(=O)c1ccncc1 (stereo not drawn)
 : -9 | 4 | -47%[inhibitor] | 3% | 3 | 1.4
> Cc1ccc(NC(=O)Nc2cc(-c3ccccc3)nn2C)cc1Cl
 : -9 | . | 2% | -15% | 2 | -3.0
> CC(Oc1ccccc1)C(=O)N1CCN(c2ccc(N3CCCCC3)nn2)CC1 (stereo not drawn)
 : -6 | 2 | -13% | -11% | -2 | -2.5
> O=C(N/N=C/c1ccc2c(c1)OCO2)c1ccc(NS(=O)(=O)c2cccs2)cc1
 : -3 | -20 | 3%[15.4 µM] | ? | -30 | -1.7
> Cc1nc(Cl)sc1C(=O)Nc1cccc2ccccc12
 : -10 | 8 | 20% | -19% | 3 | 2.0
> CCOCCn1c(CN2CCc3ccccc3C2)nc2c1c(=O)n(C)c(=O)n2C
 : -1 | -2 | 17% | 6% | 4 | -1.1
> O=C(CC1CC2CCC1C2)N1CCN(S(=O)(=O)c2ccccc2[N+](=O)[O-])CC1 (stereo not drawn)
 : 0 | . | 11% | -6% | 1 | -1.9

Laid out differently: two of the compounds above
D2 potentiator	CtBP-E1A blk	gsp agonist	gsp antag	Six1-Eya2 inh	D2 ag	structure
-1	-2	17%	6%	4	-1.1	CCOCCn1c(CN2CCc3ccccc3C2)nc2c1c(=O)n(C)c(=O)n2C
0	.	11%	-6%	1	-1.9	O=C(CC1CC2CCC1C2)N1CCN(S(=O)(=O)c2ccccc2[N+](=O)[O-])CC1 (stereo not drawn)

Entries of single compounds, looked up by structure. Screens in order: D2 potentiator, CtBP-E1A blk, gsp agonist, gsp antag, Six1-Eya2 inh, D2 ag
Cc1ccc(NC(=O)Nc2cc(-c3ccccc3)nn2C)cc1Cl reads -9, ., 2%, -15%, 2, -3.0
CC1CCc2cc(F)ccc2N1C(=O)c1ccncc1 (stereo not drawn) reads -9, 4, -47%[inhibitor], 3%, 3, 1.4
Cc1nc(Cl)sc1C(=O)Nc1cccc2ccccc12 reads -10, 8, 20%, -19%, 3, 2.0
CCN1CCN(C(=O)C(C)Oc2ccc(S(=O)(=O)N3CCCC3)cc2C(N)=O)CC1 (stereo not drawn) reads 1, 2, -57%[inhibitor], 0%, 9, -5.2
CCC(C)NC(=O)c1ccccc1NC(=O)CN1C(=O)c2ccccc2S1(=O)=O (stereo not drawn) reads -6, -4, -2%, 5%, 9, -19

(continued)
Below each compound – D2 potentiator | CtBP-E1A blk | gsp agonist | gsp antag | Six1-Eya2 inh | D2 ag
> Cc1ccnc2nc(C(=O)OCC(=O)N(CC(C)C)CC(C)C)nn12
 : -5 | 13 | 39% | -2% | -3 | -2.8
> NS(=O)(=O)c1ccc(-c2ccc(/C=N/Nc3ccc(C(=O)O)cc3)o2)cc1
 : 16 | -3 | 23% | -5% | -2 | ?
> COc1ccc(OC)c2c(C)cc(NCCN3CCOCC3)nc12
 : -24 | 10 | 16% | 0% | -8 | -0.4
> CC1CCc2c(sc3ncnc(SCC(=O)c4ccccc4)c23)C1 (stereo not drawn)
 : -10 | 8 | 13% | -1% | 0 | -3.7
> COC(=O)c1cccc(NCN2C(=O)c3ccccc3C2=O)c1
 : -1 | -11 | -23% | 6% | -8 | -2.6
> CCc1ccc(NC(=O)C(C)n2nc(C)c([N+](=O)[O-])c2C)cc1 (stereo not drawn)
 : -6 | -22 | -4%[15.4 µM] | -26% | -10 | 0.5
> CSc1nncc(/C(C)=N\Nc2cccc(C)c2)n1
 : -23 | 21 | 6% | 2% | 16 | -6.1
> COc1cccc(NC(=O)COC(=O)c2ccccc2F)c1
 : -2 | -1 | -9% | 1% | 8 | -1.9
> CCCN1CCN(c2ccc(S(N)(=O)=O)cc2[N+](=O)[O-])CC1
 : -15 | . | 21% | 7% | 1 | -3.4
> COc1ccc(-c2[nH]ncc2CN(Cc2nccn2C)C(C)C)c(F)c1
 : -7 | -7 | -57%[inhibitor] | 9% | -3 | -0.3

Continued:
Below each compound – D2 potentiator | CtBP-E1A blk | gsp agonist | gsp antag | Six1-Eya2 inh | D2 ag
> CCN1CCN(C(=O)c2ccc(OC)c(S(=O)(=O)Nc3ccc(C)cc3)c2)CC1
 : -23 | 3 | 4% | 7% | 3 | -8.5
> CC(NC(=O)/C=C/c1ccc(Br)cc1)c1ccccc1 (stereo not drawn)
 : -23 | 0 | 2% | -15% | 10 | 2.1
> COc1cccc(/C=C2\SC(=S)N(CCCC(=O)Nc3ccc(C(=O)O)cc3)C2=O)c1
 : 12 | -9 | 1% | -30% | -10 | -5.1
> COc1cccc(-n2c(=O)c3sccc3n(CC(=O)NC3CCCC3)c2=O)c1
 : -8 | 0 | -1%[15.4 µM] | 5% | -20 | -7.5
> NC(c1csc(Nc2cc(NCc3ccco3)ncn2)n1)c1ccccc1Cl (stereo not drawn)
 : -6 | -80* | . | . | ? | 2.5
> CC(NC(=S)Nc1cccc(C(F)(F)F)c1)C(C)(C)C (stereo not drawn)
 : -28 | 0 | -15% | -27% | 8 | -2.4
> CCC1(c2ccccc2)NC(=O)N(CC(=O)N(CC(=O)Nc2ccccc2C(F)(F)F)Cc2ccco2)C1=O (stereo not drawn)
 : -15 | 10 | -5% | -15% | 0 | -8.4
> CC(NC(=O)OCc1ccccc1)C(=O)N1CC(O)CC1C(=O)O (stereo not drawn)
 : 5 | 3 | -22% | 9% | 29 | -3.3
> CC(=O)Nc1cccc(-c2cc(N3CCN(CCO)CC3)n3nccc3n2)c1
 : -13 | 1 | . | . | -5 | -5.2
> CCCC(=O)c1cc2ccccc2oc1=O
 : 1 | 6 | -24% | -22% | 3 | 0.3

(continued)
Short forms: A = D2 potentiator; B = CtBP-E1A blk; C = gsp agonist; D = gsp antag; E = Six1-Eya2 inh; F = D2 ag
Cc1nc2ccc([N+](=O)[O-])cc2c(=O)n1Cc1cccc(F)c1
  A: 10; B: -3; C: 14µM*; D: 10%; E: -10; F: 5.8
CCOc1ccc(C(=O)NC(=S)Nc2ccc(N3CCCCC3)cc2)cc1[N+](=O)[O-]
  A: -10; B: ?; C: ?; D: -8%; E: -27; F: 1.8
Cc1ccc(Cc2c(-c3ccco3)nc3ccc(C)cn23)cc1
  A: -11; B: ?; C: .; D: .; E: -14; F: -5.4
O=C(CN1C(=O)/C(=C2/SC(=S)N(CCS(=O)(=O)O)C2=O)c2ccccc21)Nc1cccc(Br)c1
  A: 8; B: -3; C: 16%; D: -2%; E: ?; F: 12
C/C(=N/Nc1ccc(C)cc1)C1(C)N(O)C(C)(C)C(c2ccco2)=[N+]1[O-] (stereo not drawn)
  A: -7; B: 1; C: -7%; D: -2%; E: -4; F: -3.2
COc1ccc(/C=N/NC(=O)CNC(=O)C2COc3ccccc3O2)cc1OC (stereo not drawn)
  A: -3; B: -6; C: 5%[15.4 µM]; D: -17%; E: -8; F: -3.0
COc1ccc(C(OC(=O)c2ccco2)C(=O)NC(C)(C)C)cc1OC (stereo not drawn)
  A: -21; B: .; C: 11%; D: 1%; E: 3; F: -0.9
CCOc1ccc(NC(=O)c2c(NC(=O)CNCCN3CCOCC3)sc3c2CCC3)cc1
  A: -15; B: -82*; C: -41%[inhibitor]; D: -14%; E: ?; F: -8.3
CC/C(=N\NC(=O)c1ccc(N2CCCC2=O)cc1)c1ccccc1
  A: -2; B: -11; C: -6%[15.4 µM]; D: 5%; E: 3; F: -1.5
O=C(Nc1ccc(Oc2cccc3ccccc23)cc1)c1ccco1
  A: 28; B: 8; C: 11%; D: -16%; E: -2; F: -1.7

Other records follow:
Short forms: A = D2 potentiator; B = CtBP-E1A blk; C = gsp agonist; D = gsp antag; E = Six1-Eya2 inh; F = D2 ag
CCc1nnc(NC(=O)CSc2nnc(-c3c[nH]c4ccccc34)n2CCOC)s1
  A: -10; B: -3; C: 6%; D: 3%; E: 2; F: -3.4
CCn1nnnc1SCC(=O)Nc1nnc(C(C)C)s1
  A: -3; B: 3; C: -4%; D: 0%; E: 3; F: -2.8
COc1cccc(C(=O)Nc2ccc(NC(=O)C3CCCCC3)nc2)c1
  A: 1; B: 0; C: -26%; D: -8%; E: 13; F: 3.1
O=C(CCCNS(=O)(=O)c1cccs1)N1CCN(c2cccc(Cl)c2)CC1
  A: 4; B: 2; C: 1%; D: ?; E: -2; F: -4.1
Cc1ccc(S(=O)(=O)NCc2ccc3c(c2)cc(C)n3C)cc1
  A: -6; B: -2; C: 35%; D: 3%; E: -22; F: -6.2
CC(C)N(Cc1ccccc1)C(=O)CN1C(=O)NC2(CCCc3ccccc32)C1=O (stereo not drawn)
  A: -6; B: -12; C: -22%; D: 3%; E: ?; F: -2.1
O=C(c1ccc(Br)cc1)N1CCC(C(=O)N2CCN(c3ccccc3)CC2)CC1
  A: -7; B: -1; C: ?; D: -7%; E: 3; F: -2.4
Fc1ccc(-c2ccnc3nc(-n4cccc4)nn23)cc1
  A: 2; B: -6; C: 10%; D: -8%; E: -2; F: 2.0
CN(C)c1ncc([N+](=O)[O-])cc1C(F)(F)F
  A: 2; B: 0; C: 3%[15.4 µM]; D: 0%; E: 17; F: -11
Cc1ccccc1C(=O)N1CCC(C(=O)NC2CCCCCC2)CC1
  A: -5; B: -6; C: 7%[15.4 µM]; D: 6%; E: 5; F: -3.2

Next part.
Short forms: A = D2 potentiator; B = CtBP-E1A blk; C = gsp agonist; D = gsp antag; E = Six1-Eya2 inh; F = D2 ag
NC(=O)c1ccsc1NC(=O)COC(=O)/C=C/c1ccccc1
  A: 9; B: ?; C: 23%[15.4 µM]; D: ?; E: -7; F: 1.5
Cc1ccc(C)c(S(=O)(=O)NC2CCS(=O)(=O)C2)c1 (stereo not drawn)
  A: 2; B: 6; C: 4%; D: 5%; E: 3; F: 4.1
O=C(NN=Cc1c(F)c(F)c(F)c(F)c1F)c1ccc(NS(=O)(=O)c2cccs2)cc1
  A: -4; B: 7; C: ?; D: -13%; E: 1; F: 2.5
COc1cc(CCC(=O)OCn2nnc3ccccc3c2=O)cc(OC)c1OC
  A: 19; B: -3; C: 0%; D: -2%; E: -1; F: -3.4
COc1cc(Cl)cc(C(c2c(C(=O)O)[nH]c3ccccc23)c2c(C(=O)O)[nH]c3ccccc23)c1O
  A: -4; B: 4; C: 27%; D: 1%; E: -10; F: -4.1
COC(=O)C1N2C(=O)[C@@H](NC(=O)COc3ccccc3)[C@H]2SC1(C)C (stereo partly drawn)
  A: -1; B: 2; C: -63%[inhibitor]; D: 12%; E: 18; F: 2.8
